VACV Venus inh: inhibitors of vaccinia virus (Venus reporter) | AID 720580 | Potency, µM (titrated, usually from 36.5 µM), inactives show top-dose activity change, negative = inhibition, hits mostly inhibitors | 330,000 compounds, 0.46% hits | Vaccinia virus Venus reporter expression, fluorescence; active means well fitted inhibition curve with a large enough effect; inconclusive means small, poorly fitted or top-dose-only effect; inactive means no such curve, though single readings can be large or run the other way; tested in A549 cells; note: nearly all actives have a fitted effect of over 30% in size; inactives centre near -10
Vaccinia mCherry: inhibitors of vaccinia virus infection (mCherry reporter signal) | Vaccinia virus mCherry reporter infection, fluorescence; about a quarter of the inactives have no number | Potency, µM (series often up to 36.5 µM), inactives show top-dose activity change, negative = inhibition, most hits filed as inhibitors | 310,000 compounds, 0.63% hits; active = well fitted inhibition curve with a large enough effect; inconclusive = small, poorly fitted or top-dose-only effect; inactive = no such curve, though single readings can be large or run the other way; tested in A549 cells; note: nearly all actives have a fitted effect of over 35% in size; inactives centre near -10
Active calls of the source: *; i = inactive; ? = inconclusive; · = no result given; [ ] = remark or other dose. % is set by controls: 0 for no effect and ±100 for the full control effect; potency is the fitted concentration of half-maximal effect.

Every second line gives: VACV Venus inh, Vaccinia mCherry
- CCCCN(CC)Cc1c(C)[nH]c2c(ccc3ccccc32)c1=O
    -16%, ?
- CN(C/C=C/C#CC(C)(C)C)Cc1cccc2ccccc12
    -21%, -6%
- O=P(O)(CCCP(=O)(O)CCc1ccccc1)CCc1ccccc1
    -7%, ·
- CCOc1ccc(C2/C(=C(\O)c3cccc(OC)c3)C(=O)C(=O)N2c2cc(C)on2)cc1OC (centres undefined)
    -14%, ·
- COC(=O)c1[nH]c2ccc(C)cc2c1NC(=O)CN1CCCC(C)(C)C1
    ?, -22%[1.46 µM]
- Cc1ccc(/C=C/C(=O)N2CCN(S(=O)(=O)c3c(C)c(C)cc(C)c3C)CC2)o1
    -21%, -10%
- COc1ccc(Cn2c(-c3ccc(C)cc3)c[n+]3ccccc23)cc1
    -7%, i
- Cc1c(Br)c([N+](=O)[O-])nn1CC(=O)N1CCCc2ccccc21
    -18%, ·
- N#CC1=C(N)Oc2n[nH]c(-c3ccc(F)cc3)c2C1c1cccc(OC(=O)N2CCOCC2)c1 (centres undefined)
    1%, -2%
- O=C(Cc1c(F)cccc1Cl)N1CCN(S(=O)(=O)c2cccc(F)c2)CC1
    -16%, -2%
- CSc1nnc(CNS(=O)(=O)c2ccc(F)cc2F)n1-c1ccccc1C
    0%, i
- CC1(C)Oc2cc3oc(-c4cc(O)cc(O)c4)cc3cc2CC1O (centres undefined)
    -4%, -10%
- CCOC(=O)c1c(NC(=O)CN2C(=O)NC(C)(c3ccc(OC(F)F)cc3)C2=O)sc(C)c1C (centres undefined)
    -25%, -29%
- CCn1c(SCC(=O)N2CCN(C)CC2)nc2c1c(=O)n(C)c(=O)n2C
    -1%, -10%
- Cn1cc(S(=O)(=O)N2CCCC2)cc1C(=O)Nc1ccc(F)cc1F
    -8%, -10%
- O=C(COc1cc(F)ccc1[N+](=O)[O-])Nc1ccc(N2CCOCC2)cc1
    -3%, -1%
- CCC(C(=O)Nc1cc(Cl)c(OC)cc1OC)c1ccccc1 (centres undefined)
    -9%, -24%
- COc1cccc(C(O)Cc2nc3ccccc3n2C)c1OC (centres undefined)
    -5%, 4%
- Cc1ccc(NC(=O)CCc2nc3cccnc3n2-c2ccccc2)cc1
    -9%, -8%
- Cc1c(NC(=O)CSc2nc3c(cnn3-c3ccccc3)c(=O)[nH]2)c(=O)n(-c2ccccc2)n1C
    -15%, i
- Cc1ncc(N=Nc2ccccc2Cl)c(-c2ccccc2)n1
    -5%, ·
- Cc1ccc(CNC(=O)CO/N=C/c2ccc(C(C)(C)C)cc2)cc1
    -20%, -9%
- Cn1cc(C(=O)C(=O)N2CCCCC2)c2ccccc21
    -10%, -21%
- Cc1ccc(N(C(C)C(=O)N2CCOCC2)S(C)(=O)=O)cc1C (centres undefined)
    -10%, -10%
- COc1ccc2c(c1)CCCC21SC(NC(C)=O)=NN1C(C)=O (centres undefined)
    -4%, i
- CCCOC(=O)CCc1n[nH]c(=O)[nH]c1=O
    -4%, ·
- Cc1ccc(N(CC(C)C)S(=O)(=O)c2nnc(NC(=O)c3ccco3)s2)cc1
    -13%, -11%
- O=C(NCC(c1cccs1)N1CCOCC1)C1CCN(S(=O)(=O)c2c(Cl)cccc2Cl)CC1 (centres undefined)
    -28%, -16%
- Cc1ccc(C(=O)NCC(=O)OCC(=O)c2cc(C)n(Cc3ccco3)c2C)cc1
    -9%, -9%
- Cc1cccc(Cn2cccc(C(=O)Nc3nnc(C)s3)c2=O)c1
    -8%, -18%

Four entries drawn at random from the list so far:
Every second line gives: VACV Venus inh, Vaccinia mCherry
- N#CC1=C(N)Oc2n[nH]c(-c3ccc(F)cc3)c2C1c1cccc(OC(=O)N2CCOCC2)c1 (centres undefined)
    1%, -2%
- O=P(O)(CCCP(=O)(O)CCc1ccccc1)CCc1ccccc1
    -7%, ·
- Cc1ccc(CNC(=O)CO/N=C/c2ccc(C(C)(C)C)cc2)cc1
    -20%, -9%
- Cc1cccc(Cn2cccc(C(=O)Nc3nnc(C)s3)c2=O)c1
    -8%, -18%

Record cards (already shown). Order of screens: VACV Venus inh	Vaccinia mCherry
`Cc1ccc(/C=C/C(=O)N2CCN(S(=O)(=O)c3c(C)c(C)cc(C)c3C)CC2)o1` as listed: -21%	-10%
`Cc1cccc(Cn2cccc(C(=O)Nc3nnc(C)s3)c2=O)c1` as listed: -8%	-18%
`Cn1cc(S(=O)(=O)N2CCCC2)cc1C(=O)Nc1ccc(F)cc1F` as listed: -8%	-10%

More compounds follow.
Every second line gives: VACV Venus inh, Vaccinia mCherry
- COC(=O)c1ccccc1NC(=O)c1nc2nc(C)cc(C(F)F)n2n1
    -5%, ·
- CCOC(=O)C1=C(C)N(c2ccccc2)C(=O)NC1c1cccc([N+](=O)[O-])c1 (centres undefined)
    -4%, -16%
- Cc1ccccc1NS(=O)(=O)c1ccc(OCC(=O)NCc2cccnc2)cc1
    2%, i
- OC(c1ccc2ccccc2c1)c1ncc(-c2ccc(C(F)(F)F)cc2)[nH]1 (centres undefined)
    ?, ?
- O=C(COC(=O)C1(c2ccccc2F)CCCC1)N1CCN(C(=O)c2ccco2)CC1
    -17%, -4%
- CCOC(=O)N1CCC(N2C(=O)c3ccccc3C2Nc2ccc(Cl)cn2)CC1 (centres undefined)
    -20%, i
- Cc1cc(C)n(C(=O)c2ccc([N+](=O)[O-])cc2[N+](=O)[O-])n1
    -21%, i
- O=C(COc1cccc(C(F)(F)F)c1)N1CCN(c2ccc(O)cc2)CC1
    -12%, -14%
- CN(NC(=O)c1ccccc1)c1nc2ccccc2nc1C(F)(F)F
    -24%, ·
- CCOc1ccc(S(=O)(=O)N2CCOCC2)cc1NC(=O)CSCC(=O)Nc1cccc(C)c1
    -12%, -23%
- N#Cc1c(N)nc2c(c1N)CC(COc1ccccc1)O2 (centres undefined)
    -21%, ·
- COC(=O)c1ccc(NC(=O)C2CCCN2C(=O)Nc2cccc(C(C)=O)c2)cc1 (centres undefined)
    -6%, -12%
- O=C(Nc1ccccc1F)C1CCN(S(=O)(=O)c2cccc3nonc23)CC1
    -1%, 1%
- CO/N=C/C(C#N)c1ncc(C(F)(F)F)cc1Cl (centres undefined)
    -21%, i
- COc1ccc(C)cc1Nc1nc2c(S(=O)(=O)c3cc(C)ccc3C)nnn2c2ccsc12
    -10%, -11%
- COc1ccccc1CNCCS(=O)(=O)NCc1ccccc1
    2%, -2%
- Clc1cccc(CSc2nccn2-c2ccccc2)c1
    -7%, -14%
- CC1CN(c2ncnc3c2cnn3-c2ccc(Cl)cc2)CC(C)O1 (centres undefined)
    -20%, i
- COc1c(Cl)cc(C(=O)N(Cc2ccc(C)o2)C2CCS(=O)(=O)C2)cc1Cl (centres undefined)
    -11%, -14%
- COc1ccc(OC)c(NC(=O)CSC2=Nc3ccccc3C3=NC(CC(=O)NCCc4ccccc4)C(=O)N23)c1 (centres undefined)
    -21%, -30%
- CCOc1ccc(N(CC(=O)Nc2c(C)cccc2C)S(=O)(=O)c2c(C)[nH]c(=O)[nH]c2=O)cc1
    -5%, -4%
- Cc1ccc(Nc2nc(CSc3nnnn3-c3ccccc3)cs2)cc1
    -3%, ?
- Cc1cc(CNC(=O)C2(C(F)(F)F)C/C(=C\CCO)CCCO2)nn1C (centres undefined)
    -1%, i
- Cc1ccc(C(=O)Nc2ccccc2C(=O)N2CCCC(C)C2)cc1 (centres undefined)
    -12%, -19%
- COc1ccc(OC)c(N2CC(O)(c3ccccc3)[N+]3=C2SCCC3)c1 (centres undefined)
    -9%, -10%
- CCOc1ccc(-c2cn3c(n2)sc2cc(C(=O)NCCCN4CCCCCC4)ccc23)cc1
    -28%, -24%
- O=C(Cn1ccc2cc(S(=O)(=O)N3CCCCC3)ccc21)NCCc1ccc(Cl)cc1
    -10%, -11%
- CCOc1ccc(C2=CC(c3ccccc3)n3ncnc3N2)cc1 (centres undefined)
    -13%, -12%
- COn1c(=O)c(-c2cccc(Br)c2)[n+]([O-])c2ccccc21
    -2%, -2%
- Cc1ccc(C)n1-c1ccccc1N1CCCCC1
    -3%, 4%
- COc1cccc(CN2CC(C(=O)NCCCCc3ccccn3)CCC2=O)c1 (centres undefined)
    -9%, i
- O=C(C[n+]1ccncc1)c1ccccc1
    7%, i
- CCNc1nc(NCC)n2c(SCC(=O)Nc3ccc(F)cc3[N+](=O)[O-])nnc2n1
    9%, 3%
- O=C(CN1C(=O)c2ccccc2C1=O)OCC(=O)N1CCN(c2ccccc2)CC1
    -6%, -11%
- CCc1ccc2[nH]c(=O)c(CN(CCN(C)C)C(=O)Nc3ccccc3OC)cc2c1
    -10%, ·
- CSc1ccc(CN(C)C(=O)CNC(=O)c2sc3ccccc3c2Cl)cc1
    -12%, -13%
- Cc1csc2ncc(C(=O)Nc3ccc(C(F)(F)F)cc3)c(=O)n12
    -12%, -25%
- Cc1cccc(-n2c3nc(=O)n(C)c(=O)c-3cc3c(C)nn(-c4ccccc4)c32)c1C
    9%, 8%
- Cc1ccc2c(=O)c(C(=O)c3ccc(F)cc3)cn(CC(=O)NCc3ccccc3Cl)c2n1
    -10%, -15%
- O=C(Oc1cc2oc(=O)c3c(c2cc1Cl)CCCC3)c1ccco1
    -18%, -1%
- Cc1cc(NC(=O)CSc2nncn2N)no1
    10%, i
- COc1ccc(-n2c(C)nnc2SCC(=O)NC2CC2)cc1
    -5%, -14%
- COc1ccc(Cc2c(C3CCCCC3)nc3ccc(Br)cn23)c(C)c1
    -4%, 4%
- COc1ccc(-c2csc(NC(=O)CS(=O)(=O)c3ccccc3)n2)c(OC)c1
    -20%, -3%
- O=C(NCCCN1CCOCC1)c1nn2c(C(F)(F)F)cc(-c3ccco3)nc2c1Cl
    0%, -10%
- NS(=O)(=O)c1ccc(NC(=O)COC(=O)CCC2CCCCC2)cc1
    -8%, i
- Cc1[nH]c2ccc(-c3nnc(SCC(=O)c4ccccc4F)o3)cc2c1C
    -10%, -24%
- O=C(Nc1ccc(NC(=S)NC(=O)c2ccccc2Cl)cc1)c1cccc(Cl)c1
    -29%, ·
- CCN(CC)CCCNC(=O)C(C)n1nc(C)c2sc3ccccc3c2c1=O (centres undefined)
    -9%, -6%
- N#Cc1cnc(NOCc2ccc(Cl)cc2)nc1
    -12%, -2%
- CCOC(=O)c1c(-c2ccc(OC)cc2)csc1NC(=O)CSc1nnc(C)c(=O)[nH]1
    -4%, -13%
- COc1ccc(C(=O)Nc2cc(C)cc(C)c2)cc1S(=O)(=O)N1CCOCC1
    -18%, -20%
- O=C(COc1ccc(Cl)cc1Br)NCC(c1ccco1)N1CCCC1 (centres undefined)
    -13%, -13%
- C/C=C/C=N/Nc1nc(C)cc(=O)[nH]1
    6%, i
- CC(C)C[C@H]1CN([C@@H](Cc2ccc(O)cc2)CN2CCCC2CN2C(=S)NC[C@@H]2Cc2ccccc2)C(=S)N1CC1CCCCC1 (some centres undefined)
    -11%, -26%
- CC(=O)Nc1ccc(NC(=O)c2oc3cc(C)c(C)cc3c2C)cc1
    ?, ?
- Cc1cccc(C(=O)Nc2sc(C(=O)N3CCCC3)c(C)c2C#N)c1
    -17%, -1%
- COc1ccccc1-c1c(C(F)(F)F)oc2cc(OC(=O)c3ccc([N+](=O)[O-])cc3)ccc2c1=O
    -1%, i
- CCCCCCc1ccc(N2C[C@H](Cc3ccccc3)[C@@H](CC(=O)Nc3ccccc3)C2=O)cc1
    ?, i
- CCN(CC)C(=O)CSc1nc2ncccc2[nH]1
    -5%, -11%

Next section
Every second line gives: VACV Venus inh, Vaccinia mCherry
- C[C@@H]1CN([C@H](C)CO)C(=O)CCCn2cc(nn2)CO[C@H]1CN(C)C(=O)Nc1ccc(C(F)(F)F)cc1
    -12%, i
- Cc1c(NC(=O)c2cnn3cccnc23)c(=O)n(-c2ccccc2)n1C
    -6%, -2%
- Cc1ccc(C)c(NC(=O)CN(C)C(=O)c2ccccc2Cc2ccccc2)c1
    -16%, -14%
- O=C(c1ccccc1)N1CCC(c2nc3ccccc3o2)CC1
    1%, -4%
- CN1C(=O)c2ccccc2Sc2ccc(NC(=O)NCc3cccc(Cl)c3)cc21
    -27%, -11%
- Cc1nc2ccccc2c(=O)n1NC(=O)COc1ccccc1
    -5%, -13%
- Cc1nnc(NCCN2CCOCC2)[nH]c1=O
    -9%, -10%
- COc1ccc(/C=C(/C#N)C(=O)Nc2cccc(C)c2C)cc1C(=O)O
    -11%, ·
- CCc1cccc(NS(=O)(=O)c2ccc(-n3cccn3)cc2)c1
    -14%, -16%
- COc1cc(S(=O)(=O)n2ccc(C)n2)ccc1Cl
    -4%, i
- COc1ccc(-c2[nH]ncc2/C=N\NC(=O)c2ccc(C(C)(C)C)cc2)cc1OC
    -25%, ?
- c1cncc(CNc2ncn[nH]2)c1
    -9%, -12%
- CC(CN1CCCC1)OC(=O)c1ccc(F)cc1 (centres undefined)
    -4%, -14%
- CN(C)c1ccc(C(=O)C(O)c2ccccc2Cl)cc1 (centres undefined)
    -23%, -2%
- C=CCc1c(OC)ccc2c1c(S(=O)(=O)c1ccc(C)cc1)cn2COC
    -11%, i
- O=C(CN1CCN(S(=O)(=O)c2ccc(Br)cc2)CC1)N/N=C/c1ccco1
    -8%, -16%
- Cc1ccc(C(=O)Nc2nnc(NC(=S)Nc3ccccc3)s2)cc1
    8%, -25%
- CCCCOc1ccc(/C=c2\sc3ncnn3c2=O)cc1
    5%, 0%
- COc1cc(Cl)c(S(=O)(=O)NCCCN2CCOCC2)cc1Cl
    12%, ·
- CCNC(=O)Cn1c(-c2cccs2)cc2ccccc21
    -2%, 7%
- O=C1CC(c2ccccc2)Sc2nc3ccccc3n21 (centres undefined)
    -6%, -7%

Screening results: PubChem BioAssay, National Center for Advancing Translational Sciences (NCATS)
